# CtBP-E1A inh: qHTS Assay for Inhibitors of the CtBP/E1A Interaction. AlphaScreen GST-E1A/His-CtBP binding, 1536-well; hits give low values; control for the full effect not named in the record. activity change, % (test concentration not listed). 0.49% of 340,000 active; in the data active means activity change below about -65%; inconclusive means about -30% to -65%; inactive means above about -30%; further: on the % scale 0 is the no-effect control and ±100 the full control effect; compound concentration not given in the record
#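 Protein mix (5X: 125 nM each GST-E1A, His-CtBP) was incubated with pinned compound 2 h at 37 deg C in dark, in 50 mM Tris pH 8.0 buffer with 300 mM NaCl. Glutathione donor and nickel acceptor beads followed; AlphaScreen signal read after 1 h.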
# Sfp PPTase inh: qHTS Assay for Inhibitors of Bacillus subtilis Sfp phosphopantetheinyl transferase (PPTase). Biochemical Sfp PPTase activity, qHTS. 4'-phosphopantetheinyl transferase ffp (Bacillus subtilis), Q9F4F7. 3.5% of 310,000 active. Potency, µM, inactives show max response, negative = inhibition, most hits filed as inhibitors; active means well fitted inhibition curve with a large enough effect; inconclusive means small, poorly fitted or top-dose-only effect, or another doubt; inactive means no such curve, though single readings can be large or run the other way;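 further: the enzyme is Sfp with the accession as filed and its product quenches rhodamine fluorescence; potency means the concentration at half of the fitted maximal effect; 0% = enzyme reaction without inhibitor and -100% = no enzyme wells; top concentration of the series not given in the record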
#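 Reaction rates are the 30-min fluorescence difference (ex 525, em 598 nm) in wells containing 15 nM Sfp, 5 uM rhodamine-CoA and 12.5 uM BHQ-2-YbbR at pH 7.6 with 10 mM MgCl2.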
# TRPV1 potentiator: HTS Assay for Compounds that Act as Potentiators of the Vanilloid Receptor 1. Transient receptor potential cation channel subfamily V member 1 (Homo sapiens), Q8NER1. TRPV1-expressing cells, Fluo-8 calcium influx, capsaicin EC20 potentiation; host cell line not named in the record; control for the full effect not named in the record. potentiation, % at 8.33 µM. 0.02% of 320,000 active. AID 540277, 2011; active means potentiation above 80%; inconclusive means 30% to 80%; inactive means below 30%; further: 0% is about no effect
#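 Fluo-8 calcium influx in TRPV1-expressing cells, kinetic read (ex 480/em 520 nm). Compound added and read 3 min for agonist activity, followed by capsaicin at EC20 final and 2 min further read for enhancement.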
# D2 potentiator: Beta-Arrestin HTS for Positive Allosteric Modulators of the Human D2 Dopamine Receptor: Potentiators. DiscoveRx D2 beta-arrestin cells, luminescence, 90 min; 100% = 57 uM dopamine signal. potentiation, % (no concentration beside the values). 0.23% of 360,000 active. AID 624464, 2012; active = potentiation of 50% or more; inconclusive = 30% to 50%; inactive = 30% or less;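 further: compound concentration not given in the record; tested on top of an EC20 dose of dopamine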
#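 D2 cells co-treated with compound plus 50 nM dopamine (EC20) for 90 min at 37 deg C to detect potentiation. Beta-arrestin recruitment was read as enzyme-fragment luminescence after 1 h at ambient temperature. Full response was set by 57 uM dopamine.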
# Six1-Eya2 blk: qHTS Assay for Inhibitors of the Six1/Eya2 Interaction | Homeobox protein SIX1 (Homo sapiens) + Protein phosphatase EYA2 (Homo sapiens), … | 0.56% of 360,000 active | AlphaScreen GST-Six1/His-Eya2 binding, biochemical; hits give low values; control for the full effect not named in the record | activity change, % (concentration not given with the values) | AID 651725, 2012; in the data active = activity change below about -65%; inconclusive = about -30% to -65%; inactive = above about -30%; further: on the % scale 0 is the no-effect control and ±100 the full control effect
# Target sequence (O00167 whole entry, looked up): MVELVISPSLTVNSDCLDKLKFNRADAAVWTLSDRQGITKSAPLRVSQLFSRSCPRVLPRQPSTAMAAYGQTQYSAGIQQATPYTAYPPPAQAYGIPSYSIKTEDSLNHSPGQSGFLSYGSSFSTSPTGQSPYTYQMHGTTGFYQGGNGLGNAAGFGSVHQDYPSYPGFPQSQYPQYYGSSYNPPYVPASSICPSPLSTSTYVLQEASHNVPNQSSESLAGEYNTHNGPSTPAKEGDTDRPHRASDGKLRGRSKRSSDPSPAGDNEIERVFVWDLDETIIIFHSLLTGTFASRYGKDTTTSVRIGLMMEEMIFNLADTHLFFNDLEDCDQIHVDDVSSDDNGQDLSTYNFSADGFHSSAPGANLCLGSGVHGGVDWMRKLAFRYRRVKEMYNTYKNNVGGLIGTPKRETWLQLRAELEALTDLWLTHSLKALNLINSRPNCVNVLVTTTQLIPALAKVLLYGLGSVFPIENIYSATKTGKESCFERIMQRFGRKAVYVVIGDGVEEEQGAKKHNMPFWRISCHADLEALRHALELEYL
# Target sequence (Q15475 whole entry, looked up): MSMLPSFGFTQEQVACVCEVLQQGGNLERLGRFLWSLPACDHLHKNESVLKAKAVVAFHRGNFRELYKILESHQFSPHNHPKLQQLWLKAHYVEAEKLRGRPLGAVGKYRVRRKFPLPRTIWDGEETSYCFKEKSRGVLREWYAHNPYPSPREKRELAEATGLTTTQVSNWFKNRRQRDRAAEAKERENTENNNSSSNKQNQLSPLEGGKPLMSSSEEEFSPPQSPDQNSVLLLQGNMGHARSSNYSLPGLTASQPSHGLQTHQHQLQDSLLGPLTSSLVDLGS
#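 GST-Six1 + His-Eya2 (5X stock: 250/500 nM); Tris pH 8.0, 300 mM NaCl, 0.05% BSA, 0.02% Tween 20; GSH donor/Ni acceptor beads; 1 h 37 °C dark; AlphaScreen readout.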
# PINK1 modulator: A Quantitative High throughput Screen to Identify Chemical Modulators of PINK1 Expression; 0.2% of 410,000 active; Potency, µM (doses to about 76.6 µM), for the others: at the top dose activation (PINK1 increase), most hits filed as activators; PINK1 immunofluorescence, high-content cytometry, 24 h; AID 624263, 2012; active = well fitted activation curve with a large enough effect; inconclusive = small, poorly fitted or top-dose-only effect; inactive = flat fitted curve, though single readings scatter; cell line not stated here;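 further: potency means the concentration at half of the fitted maximal effect; % of control where 0% means no effect; nearly all actives have a fitted effect of over 65% in size; a mitochondrial uncoupler was the plate control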
#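 Stable cell line treated 24 h with compounds at 5 concentrations (CCCP controls), then fixed and immunostained for PINK1 plus nuclear and cell stains; PINK1 immunofluorescence quantified by laser-scanning microplate cytometry.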
# D2 agonist: Beta-Arrestin HTS for Positive Allosteric Modulators of the Human D2 Dopamine Receptor: Agonists; D(2) dopamine receptor (Homo sapiens), P14416; DiscoveRx PathHunter D2 beta-arrestin, luminescence, 90 min; 100% = 57 uM dopamine signal; activation, % (concentration not given with the values); 0.084% of 360,000 active; AID 624465, 2012; in the data active = activation above about 40%; inconclusive = about 15% to 40%; inactive = below about 15%; further: compound concentration not given in the record; the text of the record calls up to 30% inactive
#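 Agonist mode: compounds alone added to overnight-plated D2 PathHunter cells for 90 min at 37 C, with 57 uM final dopamine (EC100) defining full response. Beta-arrestin recruitment detected by chemiluminescent reagent, read after 1 h at ambient temperature.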
# * = called active by the depositor; ? = inconclusive; / = not tested or not shown; & = joins results of further samples; [ ] = another dose, or the depositor's remark.
# The first six entries (preview)
mol	CtBP-E1A inh	Sfp PPTase inh	TRPV1 potentiator	D2 potentiator	Six1-Eya2 blk	PINK1 modulator	D2 agonist
Cc1ccc(OCC(=O)N2c3ccccc3NC(=O)C2(C)C)c([N+](=O)[O-])n1	0	10%	-3	-5	-5	0.1%	-2.8
CCOC(=O)c1sc(/N=C/c2ccc(O)cc2O)cc1C	-1	0%	3	-11	1	3.1%	-1.9
CC(C)(C)C(=O)Cn1c[n+](N)cn1	-1	6%	-11	-6	13	-0.3%	-1.2
Cc1[nH]nc2c1C(c1ccc3c(c1)OCO3)C(C#N)=C(N)O2 (stereo not drawn)	-4	6%	-15	-6	-2	-1.1%[38.3 µM]	-2.3
CC(C)n1cc(/C=C/c2cc[n+](C)cc2)c2ccccc21	5	8%	5	-10	7	40µM*	1.1
CNC(=O)c1ccccc1NC(=O)c1cccc(S(=O)(=O)N2CCC(C)CC2)c1	-16	-9%	-10	-29	-5	0.0%	4.1

# All compounds of this part, from the first entry:
mol	CtBP-E1A inh	Sfp PPTase inh	TRPV1 potentiator	D2 potentiator	Six1-Eya2 blk	PINK1 modulator	D2 agonist
Cc1ccc(OCC(=O)N2c3ccccc3NC(=O)C2(C)C)c([N+](=O)[O-])n1	0	10%	-3	-5	-5	0.1%	-2.8
CCOC(=O)c1sc(/N=C/c2ccc(O)cc2O)cc1C	-1	0%	3	-11	1	3.1%	-1.9
CC(C)(C)C(=O)Cn1c[n+](N)cn1	-1	6%	-11	-6	13	-0.3%	-1.2
Cc1[nH]nc2c1C(c1ccc3c(c1)OCO3)C(C#N)=C(N)O2 (stereo not drawn)	-4	6%	-15	-6	-2	-1.1%[38.3 µM]	-2.3
CC(C)n1cc(/C=C/c2cc[n+](C)cc2)c2ccccc21	5	8%	5	-10	7	40µM*	1.1
CNC(=O)c1ccccc1NC(=O)c1cccc(S(=O)(=O)N2CCC(C)CC2)c1	-16	-9%	-10	-29	-5	0.0%	4.1
O=C(NNC(=O)c1cc(-c2ccco2)nc2ccccc12)c1ccccc1	-4	20µM*	/	5	-7	0.7%	3.9
O=C(/C=C/c1ccc(F)cc1)N1CCN(S(=O)(=O)/C=C/c2ccccc2)CC1	0	-1%	-2	-5	2	0.1%	2.0
CC1CCN(CCNC(=O)C2CCCN(S(=O)(=O)c3cccc4nsnc34)C2)CC1 (stereo not drawn)	5	19%	-5	-13	0	4.3%	1.3
c1ccc(-n2nnc(-c3cccnc3)n2)cc1	/	13%	1	-12	7	2.5%	-1.3
CC(=O)N1CCCc2ccccc21	3	10%	-4	-23	3	1.2%[38.3 µM]	-3.0
CC(=O)c1cccc(NC(=O)N2CCC(NC(=O)C34CC5CC(CC(C5)C3)C4)CC2)c1	-4	-2%	-6	-8	4	1.9%	-5.0
CC1CN(C(=O)c2cc3cc([N+](=O)[O-])ccc3s2)CC(C)O1 (stereo not drawn)	1	19%	0	-2	6	1.4%	-4.6
CC(O)CNc1nc2ccccc2n1CC(=O)NCCc1ccc(Cl)cc1 (stereo not drawn)	-2	4%	12	-16	-1	-1.2%	-3.7
Cc1ccc2nc3c(cc2c1)c(C)nn3-c1ccccc1	36	-8%	-3	-4	67	6.7%	-5.4
Cc1cc(OCc2cc(C(=O)NCc3csc(C(C)C)n3)no2)cc(C)c1Cl	15	7%	13	-28	5	5.1%	0.7
COc1ccc(-c2noc(CCC(=O)NCC3CCCO3)n2)cc1OC (stereo not drawn)	0	13%	-6	-1	4	-0.1%	-0.2
COc1ccc(Nc2cc(C(=O)NCCCOC(C)C)c3ccccc3n2)c(OC)c1	/	-4%	12	-6	-15	0.4%	-5.7
NS(=O)(=O)c1ccc(NC(=O)C(Sc2ccccc2)c2ccccc2)cc1 (stereo not drawn)	/	7%	-3	0	-2	1.7%	4.8
Cc1cc(C)n2nc(-c3sccc3-n3cccc3)cc2n1	-18	-5%	-11	-4	-20	-0.3%	1.0
COc1ccc(-n2c(-c3ccc(Cl)cc3)c[n+]3c2CCc2ccccc2-3)cc1	0	9%	1	-15	5	32µM*	0.8
O=C(CN1Cc2ccccc2C1=O)Nc1ccc2c(c1)OCCO2	6	16%	3	-7	-1	0.7%	4.3
CC(=O)N[C@@H]1[C@@H](O)[C@@H]2OC(c3ccccc3)OC[C@H]2O[C@@H]1N=[N+]=[N-] (stereo partly drawn)	/	1%	0	-5	3	1.3%	-3.5
Clc1ccc(Cn2ccc(C3CC3)n2)cc1	9	12%	-1	0	8	3.3%	-5.6
Cc1cc(C)c2[nH]c(=O)c(C(c3nnnn3Cc3ccc4c(c3)OCO4)N3CCCC3)cc2c1 (stereo not drawn)	-2	-3%	7	-15	-3	-0.8%	-3.1
COc1ccc(OC)c(NC(=O)C2CC(=O)N(c3ccc(Br)cc3)C2)c1 (stereo not drawn)	0	28%	-12	-21	5	0.8%	-1.8
O=C(NC1CC2CCC(C1)N2Cc1ccccc1)c1ccccc1Cl (stereo not drawn)	-4	12%	-7	-3	1	1.4%	-0.9
CCN1C(=O)[C@H]2[C@@H](c3ccc(C)cc3)N3C(=O)N(c4cccc(Cl)c4)C(=O)[C@@]3(Cc3ccc(Cl)cc3)[C@H]2C1=O	/	/	3	-14	0	2.3%	-4.0
Cc1ccc(C(=O)NCC(=O)O)o1	2	8%	-1	-9	18	0.0%	5.3
CCn1c(COc2ccccc2C(N)=O)nc2ccccc21	-2	33%[activator]	12	-8	-5	0.8%	-3.1
O=C(OC1CCc2ccccc2C1=O)c1ccccc1O (stereo not drawn)	19	-15%	-10	1	16	-2.3%	4.2
COc1ccc(C(=O)OCC(=O)Nc2c(C)cccc2C)cc1	6	-14%	20	-2	-2	0.4%	3.3
O=C(c1ccc2c(c1)CCN2S(=O)(=O)c1ccccc1)N1CCN(c2ccccc2F)CC1	-8	2%	0	8	-7	1.7%&-1.0%	-4.3
COc1ccc(NC(=O)C2CCN(S(=O)(=O)c3cccnc3)CC2)cc1Cl	1	6%	5	6	1	2.9%	-6.7
COc1coc(C(O)C[N+](=O)[O-])cc1=O (stereo not drawn)	1	32µM*	-9	12	-2	-1.1%	7.2
COCCCN1C(=O)C(=O)/C(=C(/O)c2ccc(S(=O)(=O)N3CCOCC3)cc2)C1c1ccc(C(C)C)cc1 (stereo not drawn)	6	-6%	-5	-5	-5	0.0%	2.0
CCC1(C)CC(=O)N(c2ccc(F)c(Cl)c2)C(=O)C1	8	6%	-12	-1	3	0.2%	1.7
CCOc1ccccc1OCC(=O)Nc1ccccc1C(=O)NC1CC1	6	/	6	2	8	3.6%	-2.3
CN(NC(=O)Nc1ccccc1)c1cnn(C)c(=O)c1Cl	/	18%	/	-17	-15	2.0%	5.0
O=c1[nH]nc(Cc2ccc(-c3ccccc3Cl)o2)c2ccccc12	6	-7%	27	-18	-4	-1.2%	-0.9
CC1CCN(C(=O)CCn2c(=O)oc3ccc(Cl)cc32)CC1	-2	/	/	-24	9	0.2%	-1.7
CC1CC(C)CN(C(=O)COC(=O)c2c[nH]c3ccccc23)C1 (stereo not drawn)	-2	/	-18	-4	1	-1.4%	-5.7
C[C@@H](c1ccccc1)N1C[C@@H](COCc2ccccc2)Oc2cc(N3CC[C@@H](N(C)C)C3)ccc2S1(=O)=O	?	/	/	/	-25	-0.9%	/
CCOc1ccc(Nc2nc(N)c([N+](=O)[O-])c(N3CCOCC3)n2)cc1	-14	12%	7	3	-8	3.9%	7.1
CCCNC(=S)NNC(=O)c1cccs1	-9	11%	8	-5	-13	0.9%	-3.9
CCOc1ccc(N2CC(C(=O)NCc3ccco3)CC2=O)cc1 (stereo not drawn)	3	6%	-13	-3	9	0.5%	-2.3
COc1cc(OC)c2c(-c3ccccc3)cc(=O)oc2c1C(CCN1CCCC1)c1ccc2c(c1)OCO2 (stereo not drawn)	?	?	?	-16	-12	-1.3%	-1.3
CCc1cccc(NC(=O)C2CCCN2S(=O)(=O)c2ccccc2C(F)(F)F)c1 (stereo not drawn)	11	/	-13	-14	-1	0.1%	-4.4

# Part of the list above, reformatted:
SMILES: CCOc1ccc(N2CC(C(=O)NCc3ccco3)CC2=O)cc1 (stereo not drawn)
  CtBP-E1A inh: 3; Sfp PPTase inh: 6%; TRPV1 potentiator: -13; D2 potentiator: -3; Six1-Eya2 blk: 9; PINK1 modulator: 0.5%; D2 agonist: -2.3

SMILES: COc1cc(OC)c2c(-c3ccccc3)cc(=O)oc2c1C(CCN1CCCC1)c1ccc2c(c1)OCO2 (stereo not drawn)
  CtBP-E1A inh: ?; Sfp PPTase inh: ?; TRPV1 potentiator: ?; D2 potentiator: -16; Six1-Eya2 blk: -12; PINK1 modulator: -1.3%; D2 agonist: -1.3

# The list goes on:
mol	CtBP-E1A inh	Sfp PPTase inh	TRPV1 potentiator	D2 potentiator	Six1-Eya2 blk	PINK1 modulator	D2 agonist
COC(=O)c1ccc(CN(Cc2ccc(C(=O)OC)o2)C(C)(C)C)o1	12	?	-18	11	4	1.8%	4.0
Cn1c(SCC(=O)N/N=C/c2cccnc2)nnc1-c1ccccc1	0	9%	-3	4	0	0.1%	-2.6
COc1cccc(CNC(=O)CSc2nnc3c(n2)[nH]c2ccc(F)cc23)c1	-1	9%	0	-8	-8	29%	-3.9
O=C(O)c1cc(=O)[nH]c2ccc(S(=O)(=O)Nc3ccc(F)cc3)cc12	/	3%	6	-8	-7	0.7%	-2.3

# Compound activity as filed in PubChem BioAssay.
